Assay outcomes deposited in PubChem BioAssay by several laboratories.
Hsc70 ATP site: Hsc70 inhibitors, probe displacement, primary screen, biochemical, fluorescence polarization (AID 568); Heat shock cognate 71 kDa protein (Homo sapiens); Hsc70 fluorescence polarization, probe displacement; higher % means a stronger effect; strong numbers were not always called active; 83,000 tested, under 10 active; displacement, % at 20 µM, or IC50 in µM where a hit was titrated;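 active = displacement above 50% without optical interference and an IC50 on retest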;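 note: ATPase domain with a fluorescein-tagged ATP probe; 0% = vehicle and 100% = excess ADP; read after one hour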
WNV protease inh: inhibitors of WNV NS2B-NS3 protease, primary screen, biochemical, fluorogenic substrate | 65,000 tested, 0.18% active | z-score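 (tested at a level between 10 and 100 µM)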 | AID 577, 2007 | Genome polyprotein (West Nile virus), P06935 | fluorogenic substrate Ex360/Em465; hits give low values;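 active = z-score at -3 or under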;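 note: score is relative to mean and spread of the compound wells of a plate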
Target sequence (P06935 1371-1501 limits assumed): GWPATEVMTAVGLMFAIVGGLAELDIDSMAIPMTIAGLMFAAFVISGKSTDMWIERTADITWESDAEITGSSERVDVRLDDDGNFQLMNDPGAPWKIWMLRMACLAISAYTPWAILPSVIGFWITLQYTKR
Target sequence (P06935 1502-1679 limits assumed): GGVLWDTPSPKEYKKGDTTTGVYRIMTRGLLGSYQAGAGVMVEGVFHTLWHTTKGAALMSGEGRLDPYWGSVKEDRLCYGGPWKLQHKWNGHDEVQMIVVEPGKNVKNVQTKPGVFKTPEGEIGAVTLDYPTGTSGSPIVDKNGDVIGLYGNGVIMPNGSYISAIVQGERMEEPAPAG
MT1-MMP reporter: inhibitors of MT1-MMP promoter transcription, cell-based, luciferase reporter, luminescence (AID 618); MT1-MMP promoter luciferase reporter cells, luminescence; calls from a first round at 10 µM; hits with a dose series show EC50 in µM; 87,000 tested, 0.62% active;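 active = over half of the reporter light lost at 10 µM or EC50 under 50 µM; inactive = the rest and hits that failed the dose series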;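 note: actives suppress MT1-MMP promoter-driven transcription so potencies describe inhibitors; HT1080 fibrosarcoma cells; overnight exposure; toxic or luciferase-blocking compounds were not removed from the actives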
Numbers without * were called inactive; i = inactive; / = not tested or not shown; + = active, no number. Some of the compounds tested; rates above refer to the full screens.

structure	Hsc70 ATP site	WNV protease inh	MT1-MMP reporter
COP(C)(=O)c1c(C)nn(-c2ccccc2)c1C (stereo unspecified)	0.5%	0.66	i
CCc1ccc(NC(=O)C2CC(=O)N(C(C)C)C2)cc1 (stereo unspecified)	1.6%	-0.88	i
Cc1ccc(N=C2N=C(N)c3ccccc32)cc1C	-0.7%	/	i
C=C(Br)Cn1c(CCCC)nc2ccccc21	-4.3%	-0.56	i
CCOC(=O)C1=C(C)NC2=C(C(=O)CC(c3cccs3)C2)C1c1cccs1 (stereo unspecified)	5.5%	/	i
COC(=O)c1nc(NC(C)=O)n[nH]1	8.1%	1.1	i
CCOc1ccc(-c2nnn(CC(=O)NCc3ccco3)n2)cc1OCC	0.7%	/	i
COc1ccc(C2=NOC(C(=O)NCCCN3CCOCC3)C2)cc1 (stereo unspecified)	1.9%	0.07	i
CCC(CC)C(=O)NCCc1cc2ccc(C)c(C)c2[nH]c1=O	-2.4%	0.09	i
COc1ccc(OC)c(NC(=O)CN2C(=O)C3(OCCCO3)c3ccccc32)c1	-3.1%	2.3	i
O=c1[nH]c(SCC2CCCCO2)nc2ccccc12 (stereo unspecified)	-1.9%	0.11	i
Cc1ccnc(NC(=O)c2c(O)c3ccccc3n(C)c2=O)c1	-44%	-1.4	i

Going on with the list:
structure	Hsc70 ATP site	WNV protease inh	MT1-MMP reporter
CCCC(=O)Nc1ccccc1-c1nnc(SC)[nH]c1=O	4.1%	-0.44	i
Cn1c(C(=O)N2CCN(c3ccc(Cl)cc3)CC2)cc2c(=O)[nH]c3ccccc3c21	2.8%	-0.34	i
COc1cc(C2NC(=O)NC(c3ccccc3)=C2C(C)=O)ccc1OCC#N (stereo unspecified)	-8.3%	-2.4	i
COc1ccc(CNc2oc(-c3cccc4ccccc34)nc2C#N)cc1	-4.9%	-0.04	i
Clc1ccccc1CSc1ncccn1	4.7%	-0.9	i
Cc1cc(=O)oc(C)c1C(=O)O	-13%	-0.22	i
Cc1cc(NCCCn2ccnc2)n2ncc(-c3ccccc3)c2n1	-2.1%	-0.13	+
CCOc1ccc(Nc2nc3c(c(=O)[nH]2)CCCC3)cc1	5.4%	-1.1	i
C=CCNC(=O)C(C#N)c1nc2ccccc2nc1N1CCN(Cc2ccccc2)CC1 (stereo unspecified)	12%	2.1	i
O=C(CCSc1nc(-c2ccco2)cc(C(F)(F)F)n1)NCC1CCCO1 (stereo unspecified)	8.1%	-0.4	i
COCC(=O)Nc1ccccc1C(=O)Nc1ccc(OC)cc1	-3.7%	-0.99	i
Nc1nonc1C(=O)NCCNC(=O)c1cccs1	3.6%	-1.9	i

(continued)
structure	Hsc70 ATP site	WNV protease inh	MT1-MMP reporter
COc1ccc(C(=O)Cn2c(N3CCOCC3)nc3ccccc32)cc1OC	-3.5%	0.02	i
CN(Cc1ccccc1)c1oc(COc2ccccc2F)nc1C#N	6.3%	-0.13	i
COc1ccc(NC(=O)C(CC(C)C)NS(=O)(=O)c2ccc3c(c2)CCN3C(C)=O)cc1OC (stereo unspecified)	-6.2%	/	i
O=C(CCCSc1nc(-c2ccco2)cc(C(F)(F)F)n1)Nc1ccc2c(c1)OCO2	1.6%	1.4	i
CCOC(=O)N1CCC(NC(=O)Cn2nc(-c3ccccc3)ccc2=O)CC1	-3.0%	0.48	i
Cc1cccc(NC(=O)c2cc(NC(=O)C3CCCCC3C(=O)O)ccc2Cl)n1 (stereo unspecified)	3.5%	-0.2	i
CCc1ccccc1NC(=O)c1cc2ncc(Br)cn2n1	7.3%	/	i
O=C(C1CCCCC1)N(Cc1ccccc1)c1ccccn1	-4.4%	-0.55	i
CCOC(=O)C(C(C)=O)C(c1ccc(OC)cc1)C(C(C)=O)C(=O)OCC (stereo unspecified)	2.7%	-0.02	i
CC(=O)c1c(C)[nH]c(C)c1C(C)=O	-4.2%	-0.51	i
C=CCSc1nnc(NC(=O)c2cccc(S(=O)(=O)N3CCOCC3)c2)s1	4.1%	-0.38	i
O=C(c1ccco1)N1CCN(CC(=O)N2c3ccccc3CCc3ccccc32)CC1	-1.7%	-0.31	i

(listing goes on)
structure	Hsc70 ATP site	WNV protease inh	MT1-MMP reporter
COc1cccc(-n2cc3c(c2-c2ccccc2)c(=O)n(C)c(=O)n3C)c1	-9.3%	-0.95	i
CC(C)CC(=O)NCC(C)NC(=O)CC(C)C (stereo unspecified)	4.0%	0.57	i
Cc1cc(C)c2c(n1)nn1c(N3CCOCC3)cc(C)nc21	-1.2%	3.9	i
Cc1ccc(CNS(=O)(=O)c2ccc3oc(C(=O)O)c(C)c3c2)cc1	-6.2%	-1.2	i
Cc1ccccc1OCc1nnc2c3cnn(C)c3ncn12	-11%	0.27	i
O=C(c1ccc(Nc2cccc(C(F)(F)F)c2)nc1)N1CCCC1	-5.4%	-0.42	i
CNc1nc2ccccc2n1/N=C/c1cccc(OC)c1OC	-1.5%	/	i
CCc1nnc(NC(=O)CCC(=O)NC2CCCCC2)s1	-8.8%	-1.1	i
Cc1cc2oc(=O)cc(COC(=O)c3n[nH]c4ccccc34)c2cc1C	1.7%	/	i
CCCCCC(=O)Nc1ccc(N2CCN(S(C)(=O)=O)CC2)cc1	-1.5%	0.57	i
Cc1noc(C)c1CSc1ccc2ccccc2n1	1.5%	1.5	i
CCn1c(C(=O)NC(C)c2ccc3c(c2)OCCO3)cc2sccc21 (stereo unspecified)	4.1%	-0.92	i

Four of the compounds above, with each value named:
SMILES: Cc1cc(C)c2c(n1)nn1c(N3CCOCC3)cc(C)nc21
  Hsc70 ATP site = -1.2%
  WNV protease inh = 3.9
  MT1-MMP reporter = i

SMILES: CCCCCC(=O)Nc1ccc(N2CCN(S(C)(=O)=O)CC2)cc1
  Hsc70 ATP site = -1.5%
  WNV protease inh = 0.57
  MT1-MMP reporter = i

SMILES: O=C(c1ccc(Nc2cccc(C(F)(F)F)c2)nc1)N1CCCC1
  Hsc70 ATP site = -5.4%
  WNV protease inh = -0.42
  MT1-MMP reporter = i

SMILES: Cc1ccc(CNS(=O)(=O)c2ccc3oc(C(=O)O)c(C)c3c2)cc1
  Hsc70 ATP site = -6.2%
  WNV protease inh = -1.2
  MT1-MMP reporter = i

(further entries)
structure	Hsc70 ATP site	WNV protease inh	MT1-MMP reporter
CC(C)c1ccc(CN(C(=O)c2cc3ccccc3oc2=O)C2CCS(=O)(=O)C2)cc1 (stereo unspecified)	-2.2%	/	i
CCC(C(=O)N1CCN(S(C)(=O)=O)CC1)c1ccccc1 (stereo unspecified)	2.0%	-0.44	i
CCCOC(=O)NC1C(NC(=O)OCCC)N(C)C(=O)N1C (stereo unspecified)	2.2%	-0.81	i
Nc1nc(Nc2ccc(Cl)cc2Cl)nc(C(F)(F)F)n1	3.5%	0.24	i
COCCNC(=O)c1cc2c(=O)n(C)c3ccccc3c2n1C	6.8%	1.2	i
CCCN(C(=O)CSc1nnc(-c2ccoc2C)n1N)C1CCS(=O)(=O)C1 (stereo unspecified)	2.9%	0.82	i
NS(=O)(=O)c1ccc(CCNc2nc(CN3CCOCC3)nc3sc4c(c23)CCC4)cc1	-6.2%	2.4	i
CCCCCn1c2nc3ccccc3nc2c2c(=O)n(CC3CCCO3)c(C)nc21 (stereo unspecified)	2.3%	-0.8	i
C=CCn1c(CSc2nc3ccccc3s2)nnc1SCC(=O)NCCN1CCOCC1	-7.1%	-1.2	i
CN(Cc1ccccc1)c1ncnc2ccc(Br)cc12	4.1%	1.6	i
CN(C(=O)CSC1=NCCS1)c1ccccc1	5.5%	/	i
CC(=O)NCc1ccc(-c2csc(N)n2)s1	5.7%	-0.3	i

Additional entries.
The line under a structure holds: Hsc70 ATP site	WNV protease inh	MT1-MMP reporter
COc1ccc(-c2c(C)nn(-c3ccccc3)c2N)cc1OC
  -1.6%	/	i
COCCNC(=O)C(c1ccc(C)o1)N(C(=O)c1snc(C(N)=O)c1N)c1cccc(C)c1 (stereo unspecified)
  1.0%	-0.7	i
c1csc(Cn2nnnc2CN2CCN(c3nc4ccccc4s3)CC2)c1
  0.0%	-1.3	i
Cc1onc(-c2ccccc2)c1C(=O)N1CCCSC1=Nc1ccccc1
  -0.1%	0.14	i
O=C(NCc1ccc2c(c1)OCO2)c1cc(-c2ccccc2Cl)on1
  1.3%	/	i
CCOC(=O)C(C(C)=O)C(c1ccc(OCCC(C)C)cc1)C(C(C)=O)C(=O)OCC (stereo unspecified)
  2.0%	/	i
NC(=O)CSc1nc2scc(-c3ccco3)c2c(=O)n1-c1ccccc1
  2.4%	-0.93	i
Cn1nnnc1SCC(=O)NCCCc1ccccc1
  99%	1.9	i
CCN(CC)c1ncnc2sc3c(c12)CCC3
  -2.8%	/	i
CC(NC(=O)CSc1nc2c(c(C(F)(F)F)n1)CCc1ccccc1-2)c1ccccc1 (stereo unspecified)
  -1.6%	/	i
O=C(Cc1cccs1)Nc1ccc(S(=O)(=O)Nc2ncccn2)cc1
  -15%	-0.99	i
COc1ccc(S(=O)(=O)Nc2ccc(S(=O)(=O)Nc3ccc(F)cc3)cc2)cc1C
  4.4%	/	i
Cc1ccc(N2CC(C(=O)NCCCn3ccnc3)CC2=O)cc1 (stereo unspecified)
  5.0%	-0.95	i
C=CCn1c(Cc2cccs2)nnc1SCC(=O)Nc1ccc(OC)cc1
  -4.3%	-0.89	i
C=CCn1c(=N)n(CC(=O)OC)c2ccccc21
  4.7%	-0.58	i
COc1ccccc1CNC(=O)Cn1nnc(-c2ccncc2)n1
  0.7%	-0.39	i
COc1ccc(N2C(=O)CCC(C(=O)N3CCCCC3)C2c2ccc(F)cc2)cc1 (stereo unspecified)
  -3.7%	0.87	i
CCC(O)c1cc2c(cc1NC(=O)c1ccc(C)cc1)OCCO2 (stereo unspecified)
  -0.2%	-0.69	i
O=C(CN(C(=O)CNC(=O)c1ccco1)c1ccc2c(c1)OCO2)NC1CCCCC1
  -3.5%	0.52	i
CCN1C(=O)c2ccc(C(=O)Nc3nccs3)cc2C1=O
  -1.3%	-0.05	i
O=C(NCCc1ccccc1)c1cc2sccc2n1Cc1ccccc1
  1.7%	/	i
CC1(C)Cc2c(C#N)c(N3CCN(C(=O)c4ccccc4)CC3)nc(-c3ccco3)c2CS1
  2.8%	-0.81	i
O=C(O)CSc1cccc2cccc(C(=O)O)c12
  3.8%	2.6	i
Cc1nc(SCC(=O)Nc2cc(C)on2)c2c(C)c(C)sc2n1
  2.8%	-0.92	i
O=c1cc(O)n(-c2ccccc2)c(=S)[nH]1
  2.3%	/	i
O=C(Cn1nnc(-c2ccccc2F)n1)Nc1ccc(S(=O)(=O)NC2CCCC2)cc1
  3.4%	-0.26	i
COc1ccc(CCC(=O)N2CCc3ccccc32)cc1
  4.9%	-0.15	i
COc1ccc(-c2nc(CNS(=O)(=O)c3cc(OC)ccc3OC)cs2)cc1
  3.1%	-1	i
O=C(CCC1COc2ccccc2O1)NCc1ccco1 (stereo unspecified)
  -3.0%	0.66	i
Cc1ccccc1N1C(=O)c2sc3nc4c(c(=O)n3c2C1=O)CCC4
  -0.6%	0.44	i

(list continues)
The line under a structure holds: Hsc70 ATP site	WNV protease inh	MT1-MMP reporter
COn1c(=O)c(=O)n(O)c2ccccc21
  -0.8%	/	i
COc1ccc(S(=O)(=O)N2CC3C4C=CC(C4)C3C2)cc1 (stereo unspecified)
  -6.2%	1.4	i
CCCOC(=O)c1ccc(OCC(O)CN2C(=O)NC(C)(C)C2=O)cc1 (stereo unspecified)
  2.6%	-0.52	i
COc1ccc(S(=O)(=O)N2CCCC(C(=O)NCCC3=CCCCC3)C2)cc1 (stereo unspecified)
  2.3%	0.39	i
O=C(NCC1CCCO1)C(C(=O)c1ccc(F)cc1)n1ccccc1=O (stereo unspecified)
  0.3%	1.5	i
COC(=O)CSc1ncnc2c1sc1nc(-c3ccco3)c3c(c12)CC(C)(C)OC3
  -3.0%	-0.73	i
Cc1noc(C)c1COc1cccc(C(=O)OCC(=O)N2CC(=O)Nc3ccccc32)c1
  -4.6%	0.72	i
COCCCNC(=O)c1ccc2c(=O)n(C3CCCC3)c(=S)[nH]c2c1
  3.3%	1.1	i
O=C(CCn1nnc2ccccc21)Nc1nnc(Cc2ccc(F)cc2)s1
  2.9%	1.6	i
CCC1CCCCN1C(=O)c1c[nH]c2ccc(S(=O)(=O)N(C)c3ccc(Cl)cc3)cc2c1=O (stereo unspecified)
  0.5%	/	i
CC(=O)N1CCN=C1SCc1cccc(C(F)(F)F)c1
  9.1%	-1.3	i
O/N=C1/CCSc2ccccc21
  4.8%	0.14	i
O=C(CSc1nnc(-c2ccco2)o1)NC1CCCCCC1
  4.4%	0.1	i
CCC(c1nnc(SCC(=O)NC23CC4CC(CC(C4)C2)C3)o1)N(C)C (stereo unspecified)
  -0.4%	/	i
O=C(CSc1oc(-c2ccco2)nc1S(=O)(=O)c1ccc(F)cc1)NCC1CCCO1 (stereo unspecified)
  -4.9%	/	i
Cn1c(=O)oc2cc(S(=O)(=O)N3CCCC(C(=O)NCCN4CCOCC4)C3)ccc21 (stereo unspecified)
  0.0%	0.19	i
O=C(Cc1ccc(-n2cccc2)cc1)NC1CCCCCC1
  0.3%	/	i
